VDR inh: Inhibitors of the vitamin D receptor (VDR): qHTS. 400,000 tested, 0.93% active. AID 504847, 2011. Potency, µM, for the others: max response, negative = inhibition, most hits filed as inhibitors. VDR-SRC2-3 peptide fluorescence polarization, 2 h; active = well fitted inhibition curve with a large enough effect; inconclusive = small, poorly fitted or top-dose-only effect, or another doubt; inactive = no such curve, though single readings can be large or run the other way; note: series mostly up to about 120 µM
Target sequence (P11473 whole entry, looked up): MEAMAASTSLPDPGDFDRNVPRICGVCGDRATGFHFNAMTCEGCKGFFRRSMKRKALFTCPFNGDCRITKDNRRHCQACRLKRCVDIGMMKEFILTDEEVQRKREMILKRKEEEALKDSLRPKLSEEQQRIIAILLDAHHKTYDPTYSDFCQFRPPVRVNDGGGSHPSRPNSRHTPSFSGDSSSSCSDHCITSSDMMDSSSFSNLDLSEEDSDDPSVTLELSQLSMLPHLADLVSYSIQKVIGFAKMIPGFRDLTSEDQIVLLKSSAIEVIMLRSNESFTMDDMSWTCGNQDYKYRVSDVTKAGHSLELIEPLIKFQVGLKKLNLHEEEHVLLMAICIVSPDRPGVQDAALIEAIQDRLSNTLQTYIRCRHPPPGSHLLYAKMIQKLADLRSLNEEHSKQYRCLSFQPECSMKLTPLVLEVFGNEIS
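VDR–SRC2-3 interaction, FP format. Cmpds 23 nl via pintool, brief spin, 2 h ambient incubation.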
Starred values were filed as active, the others as inactive; ? = inconclusive; & = joins results of further samples. % is set by controls: 0 for no effect and ±100 for the full control effect; potency is the fitted concentration of half-maximal effect. This is a subset; the hit share may differ from the screen's.

Sample of the layout, five compounds:
canonical_smiles | VDR inh
c1ccc(Oc2cccc(OCCCn3cncn3)c2)cc1 | 0.6%
O=C(O/N=C(/c1ccccc1)c1ccncc1)c1cccc(F)c1 | -15.0%
CCc1ccc(NC(=O)c2ccc(F)c(S(=O)(=O)N3CCN(c4cc(C)ccc4C)CC3)c2)cc1 | 9.2%
C=CCn1c(SCC(=O)Nc2ccc(O)cc2)nc2sc(CC)cc2c1=O | 10.7%
CCN(C(=O)COC(=O)/C=C/c1ccccc1)C1CCCCC1 | 13.6%

The list itself, from the first entry:
canonical_smiles | VDR inh
c1ccc(Oc2cccc(OCCCn3cncn3)c2)cc1 | 0.6%
O=C(O/N=C(/c1ccccc1)c1ccncc1)c1cccc(F)c1 | -15.0%
CCc1ccc(NC(=O)c2ccc(F)c(S(=O)(=O)N3CCN(c4cc(C)ccc4C)CC3)c2)cc1 | 9.2%
C=CCn1c(SCC(=O)Nc2ccc(O)cc2)nc2sc(CC)cc2c1=O | 10.7%
CCN(C(=O)COC(=O)/C=C/c1ccccc1)C1CCCCC1 | 13.6%
Cc1ccccc1CN1c2ccccc2-c2nc(SCC(N)=O)ncc2S1(=O)=O | -10.2%
COc1ccccc1C(O)Cc1nc2ccccc2n1C (configuration not stated) | 12.3%
N=C(C[C@@H](O)COc1ccccc1-c1ccccc1)N1CCCCC1 | 9.3%
CCOc1ccc(NC(=O)C2CCCN(S(=O)(=O)c3cnc[nH]3)C2)cc1 (configuration not stated) | -5.4%
CCOC(=O)N1CCC(NC(=O)CCc2nc(-c3ccc(C)cc3)no2)CC1 | -4.7%
CN(CC(=O)Nc1ccccc1Sc1ccccc1)Cc1nc2ccccc2c(=O)[nH]1 | -4.5%
CC(C)NC(=O)N(C)C[C@H]1Oc2ccc(NC(=O)Nc3ccccc3)cc2C(=O)N([C@H](C)CO)C[C@@H]1C | -9.6%
Cc1ccc(OCC(=O)N/N=C/c2cn[nH]c2-c2ccc(Cl)c(Cl)c2)cc1 | -2.8%
CCCCNC(=O)Nc1nnc(-c2ccccc2)o1 | -8.4%
CC(NS(=O)(=O)c1ccccc1)C(=O)Nc1nccs1 (configuration not stated) | 0.1%
Cc1ccc(CN2CCSc3ccc(C(=O)NC4CCCC4)cc32)cc1 | 5.1%
CCOC(=O)c1ccc(NC(=S)N(CCCN2CCCC(C)C2)Cc2cccs2)cc1 (configuration not stated) | 20.5%
CCC(C)[C@H](NC(=O)N1CCn2c1nc1ccccc12)C(=O)NCCc1ccc(OC)c(OC)c1 (some centres not stated) | 11.4%
CCOC(=O)NC(=O)C(=CNc1ccc(C)cc1)C(=O)NC(=O)OCC | -0.4%
CCOCCCN1C(=O)CN(C2CCCCCC2)C(=O)C1c1ccc(OC)cc1 (configuration not stated) | 4.4%
Oc1ccccc1-c1nc(N2CCN(Cc3ccccc3)CC2)c2ccccc2n1 | 6.0%
Cc1ccc(SCC(Cc2ccccc2)N2CCN(CC(C)C)CCC2=O)cc1 (configuration not stated) | -20.8%
NCCc1nnc(SCc2c(F)cccc2Cl)o1 | 9.4%
COc1ccc(C2CC(c3ccccc3)=NN2C(=O)CN2CCN(Cc3ccccc3)CC2)cc1 (configuration not stated) | -11.7%
C[S+](CC[C@H](N)C(=O)O)C[C@H]1O[C@@H](n2cnc3c(N)ncnc32)[C@H](O)[C@@H]1O (some centres not stated) | 2.0%&-0.4%
Cc1cnc(NC(=O)CSC(=S)N2CCOCC2)s1 | 4.4%
CN(C)C(=O)c1cc(C(=O)c2ccccc2)c[nH]1 | 3.4%
O=C(CN1C(=O)C2(SCC(=O)N2c2ccc(F)c(F)c2)c2ccccc21)Nc1cccc(Cl)c1 (configuration not stated) | 5.2%
CCOc1ccc(/C=N/NC(=O)C2CC2)c(OCC)c1 | 1.5%
Cc1ncc(CO)c2c1Oc1nc(-c3ccc(F)cc3)nc(SCc3ccc(F)cc3Cl)c1C2 | 4.1%

Continued:
canonical_smiles | VDR inh
COc1ccc(-c2nc(SCC(=O)Nc3ccc4c(c3)OCO4)c(-c3ccc(OC)cc3)[nH]2)cc1 | 4.1%
Cc1onc(-c2ccccc2Cl)c1C(=O)Nc1ccc(-c2cn3cccnc3n2)cc1 | -11.7%
O=C(Cn1nc(-c2ccco2)ccc1=O)Nc1ccc(Br)cc1 | ?
O=C(/C=C/c1ccco1)Nc1cccc2cccnc12 | -25.7%
CCN(CC1CCCN(CCc2cccc(F)c2)C1)C(=O)c1ccc(CSC)o1 (configuration not stated) | -19.2%
COc1ccc(-c2csc3nc(C)n(-n4cccc4)c(=O)c23)cc1OC | -3.1%
Cn1cc(C(=O)N2CCN(c3ccccc3)CC2)c(=O)c2cc(S(=O)(=O)N3CCOCC3)ccc21 | 4.8%
CCc1nn2c(=O)c(S(=O)(=O)Nc3ccc(OC)c(Cl)c3)c(C)nc2s1 | 4.4%
O=C(Nc1cccc(Cl)c1)c1ccc2nc(Cc3ccccc3)oc2c1 | 4.5%
Cc1cc(N2O[C@]34C=C[C@]25C[C@@H](O)CC[C@]5(C)C3CC[C@]2(C)[C@@H]([C@H](C)/C=C/[C@H](C)C(C)C)CC[C@H]24)no1 (some centres not stated) | ?
CC1(C)CC(=O)C2=C(C1)NC(SCC(N)=O)=C(C#N)C21CCCCC1 | 1.0%
CC(C)CC(NC(=O)C(NC(=O)OC(C)(C)C)C(C)C)C(=O)N1CCCC1C(N)=O (configuration not stated) | 15.3%
COC(=O)Cc1ccc(NC(=S)NCC(C)C)cc1 | 0.6%
CCCCC(c1nnnn1CC1CCCO1)N1CCN(Cc2ccccc2)CC1 (configuration not stated) | -9.5%
CC1CCCN(C(=O)COc2ccc(-c3ccccc3)cc2)C1 (configuration not stated) | 1.0%
Cc1ccc(-n2nc(C)c3onc(C)c3c2=O)cc1 | -4.6%
O=[N+]([O-])c1ccc(N2CCN(c3ccc(O)cc3)CC2)cn1 | 10.7%
Cn1c(=O)c2ccccc2n(CC(=O)NC2CCCC2)c1=O | -3.9%
O=C(Nc1ccc2c(c1)OCO2)c1cc(-c2ccccc2Cl)on1 | 4.0%
COc1cc2c(cc1OC)C(c1ccccc1)N(C(=O)c1ccccc1)CC2 (configuration not stated) | -8.0%
O=C(O)c1ccc(Nc2cnc3ccccc3n2)cc1 | -3.7%
O=C(Cc1ccccc1[N+](=O)[O-])NCC(O)c1ccc2c(c1)OCO2 (configuration not stated) | -9.4%
O=C(Nc1cnc2sccn2c1=O)c1ccc(Cl)cc1Cl | 7.1%
CCN(CCNC(=O)c1ccc(C#N)cc1)c1cccc(C)c1 | -25.4%
CCOC(=O)c1ccc[n+](CC(=O)c2ccc(NC(=O)c3ccccc3)cc2)c1 | 6.5%
COc1ccccc1[C@@H]1C(c2ccc(F)cc2)=NN(c2ccccc2)[C@H]1C(=O)N1CCOC1=O | 0.3%&-14.0%
CCn1nc(C(=O)Nc2nc(-c3ccccn3)cs2)c2ccccc2c1=O | 14.6%
COc1ccc(-c2noc(N3CCC(C(=O)NCc4ccc(F)cc4)CC3)n2)cc1 | -11.9%
COc1ccc(-c2nc3n(c(=O)c2C#N)CCCS3)cc1 | 16.3%
Cc1ccc(S(=O)(=O)N(C(=O)c2ccco2)c2cc3sc(=O)oc3c3ccccc23)cc1 | 20µM*

Next part:
canonical_smiles | VDR inh
COc1ccc(C(=O)CCN2CCN(c3ccccc3OC)CC2)cc1 | ?
C=CCn1c(Oc2cc(C)ccc2C)nc2c1c(=O)n(C)c(=O)n2C | 7.5%
O=C(OCC(=O)N1CCc2ccccc21)c1ccc([N+](=O)[O-])cc1 | -18.8%
CCc1ccc(N(C(C)=O)C2C=CS(=O)(=O)C2)cc1 (configuration not stated) | 8.8%
COc1ccc(CCN2CC(C(=O)NCCN3CCOC3=O)CCC2=O)cc1 (configuration not stated) | 9.3%
C=CCOc1ccc(/C=C/C(=O)OCc2csc(CC(=O)Nc3ccccc3C)n2)cc1 | -1.1%
COc1ccccc1NC(=O)C(CC=C(Cl)Cl)C(C)=O (configuration not stated) | -10.0%
Cc1cc(/C=C(/C#N)C(=O)Nc2ccc(Cl)cc2)c(C)n1-c1cccnc1 | -3.7%
Cc1cccc(NC(=O)CSc2nc(-c3cccs3)cc(C(F)(F)F)c2C#N)c1 | 8.4%
Cc1ccc2c(c1)[C@H]1[C@H](CO2)[C@H](c2ccccc2)[C@]2(C)C(=O)N(Cc3ccccc3)CC(=O)N12 | -14.5%
COc1ccc(CNC(=O)CN(C)Cc2ccccc2F)cc1OC | -11.1%
CCS(=O)(=O)N1CCCC(C(=O)NCCc2ccc(OC)c(OC)c2)C1 (configuration not stated) | -12.4%
CCOc1ccc(CNC(=O)CSc2nnc(C)c3c(C)n(-c4ccc(Cl)cc4)nc23)cc1 | 16.1%
COc1ccccc1NC(=O)c1ccccc1S(=O)(=O)c1ccc([N+](=O)[O-])cc1 | -1.4%
CCC(=O)c1cn(CC(=O)Nc2ccccc2)c2ccccc12 | -6.9%
CCOC(=O)c1ccc(N2CCOCC2)c(NS(=O)(=O)c2ccc(F)cc2)c1 | -16.4%
CCc1ccc(C2=NN(C(C)=O)C(c3ccco3)C2)cc1 (configuration not stated) | -20.4%
COc1ccc(C(=O)Nc2c(N)nc(SCC(=O)N3CCC(C)CC3)[nH]c2=O)cc1 | 8.3%
NC(=O)c1ccc(NC(=O)Cc2cccs2)cc1 | 17.1%
CC(=O)Nc1ccc(N2CCOCC2)c(Cl)c1 | 13.0%
COc1ccc(CCCc2nnc(SCC(=O)NN)o2)cc1 | 11.0%
O=C(c1cc(-c2ccc(Br)cc2)on1)N1CCCCCC1 | -3.7%
O=C(Nc1ccccc1N1CCOCC1)c1ccc(N2CCOCC2)c([N+](=O)[O-])c1 | 6.1%
CCNc1ncc2nc(-c3cc(F)cc(F)c3)c(=O)n(C)c2n1 | 5.1%
CCCCOc1cccc(NC(=O)CSc2nncn2C)c1 | -2.7%
O=C(CSc1nc2ccccc2s1)Nc1ccc2c(c1)oc1ccccc12 | 1.8%
O=C(N/C(=C\c1ccco1)C(=O)N1CCCC1)c1ccccc1 | -23.2%
CC(=O)NCC(=O)OCc1ccc([N+](=O)[O-])cc1 | -7.4%
CCCN(Cc1ccccc1)C(=S)NC(=O)c1ccccc1[N+](=O)[O-] | 9.9%
O=C(Cc1nn[nH]n1)Nc1cc(Cl)cc(Cl)c1 | -1.4%

Next part:
canonical_smiles | VDR inh
COc1ccc(NC(=O)C2=Cc3cccc(OC)c3OC2)cc1 | -1.3%
CC(C)(C)c1ccc(OCCC(=O)Nc2cccc(S(=O)(=O)N3CCCCC3)c2)cc1 | -1.3%
CC(C)N(CCNC(=O)C1CCC(=O)N1Cc1ccc(F)cc1)Cc1ccccc1 (configuration not stated) | 2.5%
Cc1ccc(S(=O)(=O)N2CCOCC2)cc1NC(=O)CN1C(=O)NC(C)(c2ccc(Cl)cc2Cl)C1=O (configuration not stated) | -6.5%
COc1ccc2[nH]c3c(c2c1)CCN1C(=O)C(CC(=O)NC/C=C(\C)CCC=C(C)C)C[C@H](C(=O)N(C(C)C)C(C)C)[C@@]31C (some centres not stated) | -17.1%
NC(=O)c1ccc(-n2nnnc2SCC(=O)Nc2ccccc2-c2ccccc2)cc1 | 1.4%
Cc1cc(-c2ccccc2)cc(-c2ccccc2)[n+]1C | -15.0%
Cn1c(SCC(=O)NC2CCCCC2)nnc1-c1cc2ccccc2o1 | -19.2%
O=C(CS(=O)(=O)c1cn(Cc2ccc(F)cc2)c2ccccc12)N1CCOCC1 | -18.0%
COc1ccc(C)cc1NC(=O)C(=O)NCCc1csc(-c2ccc(C)cc2)n1 | 0.4%
CN(C)S(=O)(=O)c1ccc(C(=O)NCCOc2ccccc2)cc1 | 8.2%
COc1cc2c(cc1OC)CN(C1CCCN(Cc3cccc(C(C)=O)c3)C1)CC2 (configuration not stated) | -7.8%
CCCCNC(=O)CCC(=O)Nc1ccc2nc(N3CCC(C)CC3)cc(C)c2c1 | 2.6%
CCN(CC)CCCN(C(=O)Cn1nnc(-c2ccc(OC)c(OC)c2)n1)C(C(=O)NC(C)(C)C)c1ccc(F)cc1 (configuration not stated) | -17.9%
Cc1c(CCC(=O)NC2CC2)c(=O)oc2c(C)c(O)ccc12 | 1.7%
[N-]=[N+]=N[C@@H](CCN1CC[C@H](NC(=O)OCc2ccccc2)CCC1=O)c1ccccc1 | 3.8%
COc1ccc(CNC(=O)CCCc2cn(C)c3ccccc23)c(OC)c1 | 9.9%
O=S(=O)(NCCSc1ccccc1)c1cccs1 | -10.1%
COc1cc(-c2nnc(NC(=O)C3=COCCO3)o2)cc(OC)c1OC | -4.0%
CSc1nnc([C@H](C)NC(=O)OC(C)(C)C)o1 | -5.1%
CC(C)c1ccc(CCNC(=O)CCNC(=O)c2ccc(Br)cc2)cc1 | -1.8%
Cc1cc(C)c(C(=O)CSC2=NC(N)=C(C#N)C3(CCCCC3)C2C(N)=O)cc1C (configuration not stated) | 4.8%
CCC(=O)Nc1ccc(NC(=S)NC(=O)c2cc3ccccc3o2)cc1 | ?
CCOC(=O)c1cccc(NC(=O)NCc2ccc3c(c2)CCN3C(=O)CC)c1 | 17.4%
Cc1c(NC(=O)CN2CCCc3ccccc32)c(=O)n(-c2ccccc2)n1C | 1.3%
COc1ccc(-n2c(SCC(=O)N3CCCCC3)nc(O)cc2=O)cc1 | 3.3%
COc1ccc(Cc2nc3c4c(ncn3n2)Oc2ccc3ccccc3c2C4c2ccc(OC)c(OC)c2)cc1 (configuration not stated) | -1.6%
COc1ccccc1CNC(=O)CCNS(=O)(=O)c1cccc2nsnc12 | 1.9%&0.7%
CCC(CC)NC(=O)CSc1ccc(S(=O)(=O)N2CCOCC2)cn1 | 4.0%
Cc1ccccc1NC(=O)Cn1nnc(-c2ccc(N3CCOCC3)cc2)n1 | 16.8%
